Source: PubChem
Vaccinia stage: Vaccinia orthopox stage-specific inhibition | Vaccinia-infected cells, mCherry/Venus stage reporter fluorescence; hits give low values; some inactives read as strong as hits | activity change (mCherry), % (concentration not given with the values) | 0.01% of 89,000 active;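 active = mCherry past -33% and 40 or more points under the early reporter, replicates agreeing; inconclusive = past -33% without that gap or agreement; tested in A549 cells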;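 also: scaled between vehicle wells and reference inhibitor wells; 23 nL library stock went into each well; one replicate is shown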
Vaccinia stage Venus: second read-out of Vaccinia stage, no call of its own (marks repeat the call); activity change (Venus), %; measured here: Venus reporter, other viral stage;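 negative = less Venus signal; first of two replicates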
The depositor's hits bear a star. A portion of the library (hit frequency here may not be typical).

`CCN(C[C@@H]1N[C@@H](CO)[C@H]1c1ccc(-c2ccccc2)cc1)C(=O)COC` gave Vaccinia stage -2.3 and Vaccinia stage Venus -1.8.
For O=C(NC[C@@H]1[C@@H](c2ccccc2)[C@@H](CO)N1Cc1ccccn1)C1CC1 the results were Vaccinia stage 18.3 and Vaccinia stage Venus 23.9.
Screening CN(C)CC(=O)Nc1ccc2c(c1)[C@H]1C[C@@H](CC(=O)N3CCCCC3)O[C@H](CO)[C@H]1O2 returned Vaccinia stage -1.8 and Vaccinia stage Venus 0.0.
Screening CC(C)c1cn([C@H]2C[C@@H]3O[C@H](CO)CC[C@@H]3O[C@@H]2CCc2ccc(-c3ccccc3)cc2)nn1 returned Vaccinia stage -3.7 and Vaccinia stage Venus -4.0.
For CCCC(=O)N1CCC2(CC1)CN(C(=O)Nc1cccc(F)c1)[C@H](CO)c1c2c2ccc(OC)cc2n1C the results were Vaccinia stage -26.0 and Vaccinia stage Venus -25.1.
C[C@H](CO)N1C[C@H](C)[C@H](CN(C)Cc2ccc3c(c2)OCO3)Oc2ccc(NS(=O)(=O)c3cn(C)cn3)cc2C1=O was read as Vaccinia stage 6.4 and Vaccinia stage Venus 2.4.
CCCN(C)C[C@H]1OCCCC[C@@H](C)Oc2ccc(NC(=O)NC3CCCCC3)cc2C(=O)N([C@@H](C)CO)C[C@H]1C was read as Vaccinia stage -16.4 and Vaccinia stage Venus -3.7.
For COCc1cn(CC[C@H]2CC[C@@H](NC(=O)Nc3ccc4c(c3)OCO4)[C@@H](CO)O2)nn1 the results were Vaccinia stage 7.7 and Vaccinia stage Venus 3.0.
`C[C@H](CO)N1C[C@H](C)[C@@H](CN(C)C(=O)Nc2ccccc2)Oc2ccc(NC(=O)Nc3ccccc3)cc2CC1=O` gave Vaccinia stage -5.8 and Vaccinia stage Venus -5.2.
`Cc1noc(C)c1S(=O)(=O)N(C)C[C@H]1OCCCC[C@H](C)Oc2ccc(NC(=O)NC3CCCCC3)cc2C(=O)N([C@@H](C)CO)C[C@@H]1C` gave Vaccinia stage inconclusive.

For reference, part of the list above.
`CCN(C[C@@H]1N[C@@H](CO)[C@H]1c1ccc(-c2ccccc2)cc1)C(=O)COC` gave Vaccinia stage -2.3 and Vaccinia stage Venus -1.8.
For O=C(NC[C@@H]1[C@@H](c2ccccc2)[C@@H](CO)N1Cc1ccccn1)C1CC1 the results were Vaccinia stage 18.3 and Vaccinia stage Venus 23.9.
Screening CN(C)CC(=O)Nc1ccc2c(c1)[C@H]1C[C@@H](CC(=O)N3CCCCC3)O[C@H](CO)[C@H]1O2 returned Vaccinia stage -1.8 and Vaccinia stage Venus 0.0.
Screening CC(C)c1cn([C@H]2C[C@@H]3O[C@H](CO)CC[C@@H]3O[C@@H]2CCc2ccc(-c3ccccc3)cc2)nn1 returned Vaccinia stage -3.7 and Vaccinia stage Venus -4.0.
For CCCC(=O)N1CCC2(CC1)CN(C(=O)Nc1cccc(F)c1)[C@H](CO)c1c2c2ccc(OC)cc2n1C the results were Vaccinia stage -26.0 and Vaccinia stage Venus -25.1.
C[C@H](CO)N1C[C@H](C)[C@H](CN(C)Cc2ccc3c(c2)OCO3)Oc2ccc(NS(=O)(=O)c3cn(C)cn3)cc2C1=O was read as Vaccinia stage 6.4 and Vaccinia stage Venus 2.4.
CCCN(C)C[C@H]1OCCCC[C@@H](C)Oc2ccc(NC(=O)NC3CCCCC3)cc2C(=O)N([C@@H](C)CO)C[C@H]1C was read as Vaccinia stage -16.4 and Vaccinia stage Venus -3.7.

Further records
`C[C@@H]1CN([C@H](C)CO)S(=O)(=O)c2ccc(-c3cccnc3)cc2O[C@@H]1CN(C)C(=O)c1ccc2c(c1)OCO2` gave Vaccinia stage 4.6 and Vaccinia stage Venus 4.7.
For C[C@@H]1CN([C@@H](C)CO)C(=O)c2cc(-c3cccc(F)c3)cnc2O[C@H]1CN(C)Cc1cncnc1 the results were Vaccinia stage 14.5 and Vaccinia stage Venus 5.3.
`C[C@@H]1CN([C@H](C)CO)C(=O)Cc2cc(NC(=O)C3CCCCC3)ccc2O[C@@H]1CN(C)S(=O)(=O)c1ccc(Cl)cc1` gave Vaccinia stage -22.3 and Vaccinia stage Venus -3.6.
`Cc1ccc(S(=O)(=O)Nc2ccc3c(c2)C(=O)N([C@@H](C)CO)C[C@@H](C)[C@@H](CN(C)S(=O)(=O)c2cccs2)O3)cc1` gave Vaccinia stage -12.7 and Vaccinia stage Venus -6.4.
Cc1ccc(S(=O)(=O)N(C)C[C@@H]2Oc3ccc(NC(=O)CCN4CCOCC4)cc3C(=O)N([C@@H](C)CO)C[C@@H]2C)cc1 was read as Vaccinia stage 9.4 and Vaccinia stage Venus 10.5.
Screening COc1ccc(S(=O)(=O)Nc2cccc3c2O[C@@H](CN(C)S(=O)(=O)c2ccc(Cl)cc2)[C@@H](C)CN([C@@H](C)CO)C3=O)cc1 returned Vaccinia stage -7.5 and Vaccinia stage Venus -8.1.
Screening Cc1ccccc1-c1ccc2c(c1)O[C@@H](CN(C)Cc1ccncc1)[C@H](C)CN([C@@H](C)CO)S2(=O)=O returned Vaccinia stage inconclusive.
C[C@H]1CN([C@@H](C)CO)C(=O)c2cc(NC(=O)Cn3cnnn3)ccc2O[C@@H]1CN(C)Cc1ccc(Oc2ccccc2)cc1 was read as Vaccinia stage 8.1 and Vaccinia stage Venus 7.7.
Screening O=C(c1ccccc1)N1CC[C@@H]2[C@H](CO)Nc3ccc(-c4ccccc4F)cc3[C@@H]21 returned Vaccinia stage -14.6 and Vaccinia stage Venus -6.4.
For Cn1cnc(S(=O)(=O)N2CCCCN3[C@H](C2)[C@@H](c2ccc(-c4ccccc4)cc2)[C@@H]3CO)c1 the results were Vaccinia stage -13.3 and Vaccinia stage Venus -10.9.
For C[C@@H]1CN([C@H](C)CO)C(=O)c2cc(NC(=O)C3CC3)ccc2O[C@@H]1CN(C)Cc1ccccc1 the results were Vaccinia stage -16.2 and Vaccinia stage Venus -5.8.
Screening COc1ccccc1NC(=O)N1C[C@H]2[C@@H](c3ccccc31)[C@@H](CO)N2C(C)=O returned Vaccinia stage 9.3 and Vaccinia stage Venus 8.2.
`C[C@@H]1CCCCO[C@H](CN(C)C(=O)c2ccncc2)[C@@H](C)CN([C@H](C)CO)C(=O)c2cc(NC(=O)c3ccccc3)ccc2O1` gave Vaccinia stage 16.9 and Vaccinia stage Venus 0.2.
CNC[C@@H]1Oc2ccc(NS(C)(=O)=O)cc2C(=O)N([C@H](C)CO)C[C@H]1C was read as Vaccinia stage 13.1 and Vaccinia stage Venus 4.4.
Screening COc1ccc(NC(=O)Nc2ccc3c(c2)CC(=O)N([C@@H](C)CO)C[C@@H](C)[C@@H](CN(C)S(=O)(=O)c2cn(C)cn2)O3)cc1 returned Vaccinia stage 12.7 and Vaccinia stage Venus 17.9.
Screening CC(C)CC#Cc1ccc([C@@H]2[C@H](CO)N3C(=O)CN(C(=O)c4ccccn4)C[C@@H]23)cc1 returned Vaccinia stage -20.6 and Vaccinia stage Venus -15.2.
C[C@@H]1CN([C@@H](C)CO)C(=O)Cc2cc(NS(=O)(=O)c3cccs3)ccc2O[C@@H]1CN(C)Cc1ccc(Cl)c(Cl)c1 was read as Vaccinia stage -31.5 and Vaccinia stage Venus -26.9.
For C[C@@H]1CN([C@H](C)CO)C(=O)c2cc(C#C[C@@H](C)O)cnc2O[C@@H]1CN(C)C(=O)CN1CCOCC1 the results were Vaccinia stage 4.5 and Vaccinia stage Venus 7.5.
For CN(C)CCCNC(=O)C[C@@H]1CC[C@H](NC(=O)c2ccccc2F)[C@@H](CO)O1 the results were Vaccinia stage 0.5 and Vaccinia stage Venus 4.5.
For COC(=O)C[C@H]1CC[C@@H]2[C@H](COc3ccc(NS(=O)(=O)c4cccc(F)c4)cc3C(=O)N2C)O1 the results were Vaccinia stage -9.8 and Vaccinia stage Venus -13.6.
Screening COc1ccccc1C(=O)N1C[C@@H]2[C@H](c3ccccc31)[C@H](CO)N2C(=O)Cc1ccccc1 returned Vaccinia stage 7.7 and Vaccinia stage Venus 6.6.
Screening CC(C)NC(=O)N[C@H]1C[C@@H]2O[C@@H](CO)CC[C@@H]2O[C@@H]1CCc1ccc(-c2ccc(F)cc2)cc1 returned Vaccinia stage -4.0 and Vaccinia stage Venus -2.8.
C[C@@H]1CN([C@H](C)CO)C(=O)Cc2cc(NC(=O)Cc3cn(C)c4ccccc34)ccc2O[C@H]1CN(C)Cc1ccccc1 was read as Vaccinia stage -2.2 and Vaccinia stage Venus 5.8.
Screening Cc1noc(C)c1S(=O)(=O)N(C)C[C@@H]1OCCCC[C@@H](C)Oc2ccc(NC(=O)Nc3ccc(C(F)(F)F)cc3)cc2C(=O)N([C@H](C)CO)C[C@H]1C returned Vaccinia stage -12.8 and Vaccinia stage Venus -5.7.
Screening CCCc1cn(CC[C@H]2CC[C@H](NC(=O)Cc3cccnc3)[C@H](CO)O2)nn1 returned Vaccinia stage 7.2 and Vaccinia stage Venus 4.9.
C[C@@H]1CCCCO[C@@H](CN(C)C)[C@H](C)CN([C@H](C)CO)C(=O)c2cc(NS(C)(=O)=O)ccc2O1 was read as Vaccinia stage 8.3 and Vaccinia stage Venus 0.5.
O=C(C1CCCC1)N1CC2(C1)[C@@H](c1ccccc1)[C@H](CO)N2C(=O)NC1CCCC1 was read as Vaccinia stage -5.2 and Vaccinia stage Venus -2.2.
For Cc1ccc(S(=O)(=O)N(C)C[C@@H]2OCCCC[C@@H](C)Oc3ccc(NC(=O)CCCN(C)C)cc3C(=O)N([C@H](C)CO)C[C@@H]2C)cc1 the results were Vaccinia stage 26.0 and Vaccinia stage Venus 16.8.
COc1ccc(NC(=O)N(C)C[C@H]2OCc3ccccc3-c3ccccc3C(=O)N([C@H](C)CO)C[C@@H]2C)cc1 was read as Vaccinia stage 20.8 and Vaccinia stage Venus 6.8.
O=C(C[C@@H]1C[C@H]2c3cc(NC(=O)c4ccc5c(c4)OCO5)ccc3O[C@H]2[C@H](CO)O1)NCc1ccccn1 was read as Vaccinia stage 11.8 and Vaccinia stage Venus 12.9.
`O=C(C1CCOCC1)N1C[C@H]2[C@@H](c3ccccc31)[C@H](CO)N2Cc1ccccc1Cl` gave Vaccinia stage 2.7 and Vaccinia stage Venus 0.5.
Screening COc1ccc(NC(=O)Nc2ccc3c(c2)C(=O)N([C@H](C)CO)C[C@H](C)[C@H](CN(C)S(=O)(=O)c2cccs2)O3)cc1 returned Vaccinia stage -3.2 and Vaccinia stage Venus 11.1.
For Cc1ccc(S(=O)(=O)Nc2ccc3c(c2)C(=O)N([C@@H](C)CO)C[C@H](C)[C@@H](CN(C)S(=O)(=O)c2ccc(F)cc2)O3)cc1 the results were Vaccinia stage 11.3 and Vaccinia stage Venus 4.3.
For CCCC(=O)Nc1ccc2c(c1)OC[C@@H](C)N(Cc1ccccc1F)C[C@H](C)[C@@H](OC)CN(C)C2=O the results were Vaccinia stage -14.8 and Vaccinia stage Venus -13.2.
For CO[C@@H]1CN(C)C(=O)c2cc(NS(=O)(=O)CC(F)(F)F)ccc2OC[C@H](C)N(C(=O)c2ccc3c(c2)OCO3)C[C@H]1C the results were Vaccinia stage 16.0 and Vaccinia stage Venus 5.4.
For O=C(Cc1ccccn1)N1CCCCN2[C@H](C1)[C@@H](c1ccc(-c3ccccc3F)cc1)[C@@H]2CO the results were Vaccinia stage -6.0 and Vaccinia stage Venus -7.4.
COc1ccc2c3c(n(C)c2c1)[C@H](CO)N(C(=O)C1CCCC1)CC31CN(C(=O)CC2CC2)C1 was read as Vaccinia stage 16.4 and Vaccinia stage Venus 1.5.
O=C(NCC[C@H]1CC[C@H](NS(=O)(=O)c2ccccc2)[C@@H](CO)O1)c1ccc2c(c1)OCO2 was read as Vaccinia stage 5.5 and Vaccinia stage Venus 15.1.
Screening C[C@@H]1CN([C@H](C)CO)C(=O)c2cc(NC(=O)Nc3ccc(F)cc3)ccc2O[C@H]1CN(C)S(=O)(=O)c1ccccc1 returned Vaccinia stage 1.2 and Vaccinia stage Venus 2.8.
Screening COc1ccc2c3c(n(C)c2c1)[C@H](CO)N(C(=O)Nc1ccc(F)cc1)CC31CN(C(=O)c2ccccc2F)C1 returned Vaccinia stage inconclusive.
`C[C@H](CO)N1C[C@H](C)[C@H](CN(C)Cc2ccc(-c3ccccc3)cc2)Oc2ccc(NC(=O)Nc3ccc(C(F)(F)F)cc3)cc2CC1=O` gave Vaccinia stage -26.3 and Vaccinia stage Venus -12.2.
`N#Cc1cccc(-c2ccc(C3[C@@H]4CN(S(=O)(=O)c5ccc(F)cc5)C[C@H]3N4)cc2)c1` (stereo not given in full) gave Vaccinia stage inconclusive and Vaccinia stage Venus -6.1.
C[C@H](CO)N1C[C@H](C)[C@H](CN(C)S(=O)(=O)c2ccc(Cl)cc2)Oc2ccc(NC(=O)CCCN(C)C)cc2CC1=O was read as Vaccinia stage -1.3 and Vaccinia stage Venus -0.5.
C[C@@H]1CN([C@H](C)CO)C(=O)c2cc(C3=CCCC3)cnc2O[C@@H]1CN(C)C was read as Vaccinia stage 12.3 and Vaccinia stage Venus 6.2.
`O=C(C[C@@H]1C=C[C@H](NC(=O)C2CCOCC2)[C@H](CO)O1)Nc1ccccc1` gave Vaccinia stage 11.1 and Vaccinia stage Venus 8.8.
CCC(=O)N1[C@H](CN(C)C(C)=O)[C@@H](c2ccc(-c3cccnc3)cc2)[C@@H]1CO was read as Vaccinia stage -1.5 and Vaccinia stage Venus -1.7.
For C[C@H]1CN([C@@H](C)CO)C(=O)c2cc(NC(=O)Nc3ccccc3)ccc2O[C@H]1CN(C)C(=O)Nc1cccc2ccccc12 the results were Vaccinia stage 12.9 and Vaccinia stage Venus 9.8.
`C[C@H]1CN([C@@H](C)CO)C(=O)Cc2cc(NS(=O)(=O)c3ccc(F)cc3)ccc2O[C@H]1CN(C)CC1CC1` gave Vaccinia stage 17.7 and Vaccinia stage Venus 6.6.
For O=C(Nc1cccc(F)c1)N[C@H]1CC[C@H](CCn2cc(Cc3ccccc3)nn2)O[C@@H]1CO the results were Vaccinia stage -22.1 and Vaccinia stage Venus -7.7.
